CRE-bla Fsk: CRE-bla signaling modulation under forskolin stimulation | Potency, µM (titrated, usually from 38.2 µM), for the others: top-dose activity change, negative = inhibition, hits mostly activators | actives 2.5% (n = 71,000) | CHO CRE-bla reporter (cAMP response element driving beta-lactamase), forskolin EC10, beta-lactamase ratio; active = well fitted activation curve with a large enough effect in the signal ratio, with a control signal flat, not every such curve was filed as active; inconclusive = small, poorly fitted or top-dose-only effect, or effect the other way, or a change in a side signal; the % refers to the signal ratio; note: potency is the fitted concentration of half-maximal effect; % of control where 0% means no effect
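Beta-lactamase reporter under a cAMP responsive element in CHO cells; compounds tested in titration series against EC10 NKH 477, 3 h at 37 °C. Read-out: CCF4 FRET ratio 460nm/530nm (excitation 405nm) giving %Activity, fitted to AC50.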
HBB splice mod: modulators of hemoglobin beta chain splicing; AID 925; Potency, µM (doses to about 46.1 µM), inactives show at the highest dose activation, hits mostly activators; actives 0.06% (n = 65,000); HBB splicing reporter cell assay, activation; EGFP reporter with mutant IVS2-654 intron; response scale: normalised to 500 nM splice-correcting PNA; note: potency is the fitted concentration of half-maximal effect; 0% is about no effect
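Compounds were applied for 2 days to HeLa EGFP-654 cells, 500/well in Optimem with 2% FCS. The reporter's EGFP is disrupted by mis-splicing of beta-globin intron IVS2-654. Readout: summed well GFP fluorescence from 488 nm laser scanning; reference was 500 nM antisense […] 654 PNA.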
15-hLO inh: blocks human 15-lipoxygenase activity | purified 15hLO-1, xylenol orange hydroperoxide absorbance | actives 1.4% (n = 74,000) | P16050 | Potency, µM (top dose mostly 57.1 µM), without a hit: top-dose activity change, negative = inhibition, usual class: inhibitors; note: potency is the fitted concentration of half-maximal effect; % is set by controls: 0 for no effect and ±100 for the full control effect; nearly all actives have a fitted effect of over 55% in size
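40 nM 15hLO-1 + cpd, 15 min RT; start w/ 50 uM AA (final), 6 min RT; stop/detect w/ 200 uM XO + 300 uM Fe(II) in 50 mM H2SO4, 30 min; A573/A405. Buffer 25 mM Hepes pH 7.5, 0.01% Triton X-100. No-enzyme wells as negative control.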
BRCT inh red: inhibitors of human BRCA1 BRCT-phosphoprotein interaction (red fluorophore); BRCT-phosphopeptide binding, red fluorescence polarization; actives 0.03% (n = 75,000); AID 892; Potency, µM (highest dose often 76.9 µM), for the others: top-dose activity change, negative = inhibition, hits mostly inhibitors; P38398; note: % is set by controls: 0 for no effect and ±100 for the full control effect
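Rhodamine-labelled pBACH1 10-mer (100 nM) bound to BRCT domain (100 nM) at pH 7.3; compounds incubated 12 min room temperature, polarization read. Free peptide defines full inhibition; unlabelled decapeptide titrated as control.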
Pol III holo inh: DNA polymerase III holoenzyme inhibition; reconstituted DNA polymerase III holoenzyme replication, biochemical; Potency, µM (doses to about 57.1 µM), inactives show top-dose activity change, negative = inhibition; actives 0.25% (n = 71,000); AID 603; note: potency is the fitted concentration of half-maximal effect; % is set by controls: 0 for no effect and ±100 for the full control effect
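Reconstituted *E. coli* holoenzyme (0.35 nM Pol III, 1 nM beta, 154 nM SSB, 2 nM primase) was preincubated with compound for 15 min at RT. Synthesis on 1.4 nM ssM13Gori ran 35 min, then was stopped with PicoGreen/EDTA and read as dsDNA fluorescence.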
Epigenetic mod: epigenetic GFP locus derepression in mouse cells; mouse C127i GFP locus derepression, cytometry, 30 h; Potency, µM (highest dose often 46.1 µM), inactives show top-dose GFP derepression (activation); actives 0.09% (n = 68,000); AID 597; note: % of control where 0% means no effect
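Derepression screen: silenced CMV-GFP reporter in murine C127i cells, 30 h compound incubation at 37 C, washed cells imaged by laser-scanning cytometer to enumerate GFP-expressing objects of 20 to 120 um.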
UbGFP stabilizer: proteasome inhibitors stabilizing ubiquitin-GFP reporter; Ubiquitin-GFP reporter cells, proteasome inhibition, GFP fluorescence; response scale: untreated = 0%, 10 µM MG-132 = 100%; Potency, µM (series often up to 45.9 µM), inactives show top-dose activation (GFP accumulation), most hits filed as activators; 67,000 tested, under 10 active; active = well fitted activation curve with a large enough effect, not every such curve was filed as active; inconclusive = small, poorly fitted or top-dose-only effect, or another doubt; inactive = no such curve, though single readings can be large or run the other way; note: potency is the fitted concentration of half-maximal effect
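Proteasome blockade was scored as a rise in GFP-expressing U2OS cells carrying a ubiquitin(G76V)-GFP construct, imaged after 4 hr compound treatment at 37 °C across a 46 uM–2.9 nM series.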
BRCT PPI green: BRCA1 BRCT-phosphoprotein interaction inhibition | P38398 | BRCA1 BRCT-phosphopeptide binding, green fluorescence polarization | Potency, µM (highest dose often 76.9 µM), for inactives: top-dose activity change, negative = inhibition, usual class: inhibitors | actives 0.05% (n = 75,000) | AID 875;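 note: potency is the fitted concentration of half-maximal effect; plate controls were peptide without protein for full effect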
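Compounds were incubated for 12 min at room temperature with a complex of 100 nM fluorescein-tagged pBACH1 decapeptide and 250 nM His-tagged BRCT protein. Buffer was phosphate pH 7.3 with EDTA, DTT and Tween 20. Disruption of binding lowers the polarization signal.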
* marks the source's active call; other numbers are inactive results; ? = inconclusive; . = no result given; [ ] = another dose, or the depositor's remark. Unless noted, calls come from the whole dose curve; as a rule, active = well fitted curve in the direction sought with a large enough effect; inconclusive = small, poorly fitted or top-dose-only effect, or another doubt; inactive = no such curve, though single readings can be large; an effect the other way counts as inactive or inconclusive.

entry | SMILES | CRE-bla Fsk | HBB splice mod | 15-hLO inh | BRCT inh red | Pol III holo inh | Epigenetic mod | UbGFP stabilizer | BRCT PPI green
1 | Cc1ccc(CNc2cc(-c3nn4c(C)nnc4s3)ccc2C)s1 | 20µM* | -1.3% | -2% | -3.1% | -21% | 0% | 2% | 1.3%
2 | Cc1nc2cc(F)ccc2n1C1CCN(S(=O)(=O)c2ccccc2)CC1 | -4% | . | 2% | -0.1% | -1% | 0% | 6% | -1.1%
3 | CCOc1cc(S(=O)(=O)N2CCCCC2)ccc1Cl | 3% | . | -7% | -0.7% | 0% | 0% | 5% | -0.4%
4 | CCCC(=O)Nc1ccc(C(=O)NCCCn2ccnc2)cc1 | -1% | 5.1% | -1% | -1.0% | 1% | 0% | 8% | -3.5%
5 | COc1ccc2cc(C(=O)CCC(=O)O)ccc2c1 | -8%[7.6 µM] | 1.6%[9.22 µM] | -3%[11.4 µM] | 1.0%[15.4 µM] | -1%[11.4 µM] | 2%[9.22 µM] | 11%[9.17 µM] | -0.6%[15.4 µM]
6 | O=C(Nc1ccc2nc(-c3ccccc3)oc2c1)c1ccco1 | 1% | -0.5% | -6% | -0.9% | 0% | 0% | -4% | -2.8%
7 | COc1ccc(S(=O)(=O)N(CCN2CCOCC2)Cc2cc(OC)ccc2OC)cc1 | ? | 0.2%[0.369 µM] | -2% | 0.2% | 2% | -2% | . | -2.0%
8 | O=C(CCCCCN1C(=O)c2ccccc2C1=O)NC1CCCC1 | 1% | . | 4% | -0.6% | -4% | 1% | 5% | -2.3%
9 | COc1cccc(-c2nc(-c3ccccc3)no2)c1 | ? | 1.0% | -3% | 0.4% | 0% | 0% | 8% | 0.0%
10 | COc1cc(C(=O)OC2CCCCC2=O)cc(OC)c1C (stereo not drawn) | ? | -6.2% | -21% | -0.3% | -11% | -1% | -3% | 0.5%
11 | Cc1nc2nc(-c3ccccc3)cn2nc1C | ? | -1.2% | 3% | -3.4% | -2% | -1% | 5% | -1.5%
12 | COc1ccccc1N1CCN(Cc2nc3ccccc3c(=O)n2CC(C)=O)CC1 | ? | -2.9% | 1% | 0.9% | 0% | 1% | -10% | -2.3%
13 | CN(C)S(=O)(=O)NCc1ccc2c(c1)OCO2 | ? | 0.7% | 8% | 0.8% | -4% | -3% | -6% | -1.5%
14 | CCOC(=O)c1cn(CC)c2cc(N3CCCCC3)c(F)cc2c1=O | ? | 0.6%[57.5 µM] | -1% | -2.4% | 2% | 0% | -5% | -1.4%
15 | COc1ccc2cc(C#N)c(N3CCN(Cc4nnnn4CCC(C)C)CC3)nc2c1 | 10% | . | -16% | 1.5% | -10% | 0% | -1% | 4.7%
16 | COc1ccc(C(=O)NCCCn2ccnc2)cc1 | -2% | -0.2%[57.5 µM] | 7% | -2.0% | -2% | 0% | 0% | 0.8%
17 | COc1ccc2cc3cc(C(=O)NCc4ccc5c(c4)OCO5)oc3nc2c1 | ? | -1.1% | -18% | 1.4% | -5% | -2% | 20% | -1.1%
18 | CN(C)CCN(c1ccccn1)c1ccccn1 | 0%[7.6 µM] | 4.6%[9.22 µM] | 6%[11.4 µM] | 0.7%[15.4 µM] | -11%[11.4 µM] | -6%[9.22 µM] | -3%[9.17 µM] | -1.2%[15.4 µM]
19 | CCOc1cc(S(=O)(=O)NCCN2CCOCC2)c(C)cc1C | 9% | -0.3% | 2% | -2.0% | 2% | -1% | -2% | 0.4%
20 | CC1(C)NC(=O)N(CNc2cc(Cl)ccc2Cl)C1=O | -1% | . | -15% | 1.2% | -4% | -3% | -3% | -1.6%
21 | Cn1c(=NC(=O)C2CCN(S(=O)(=O)c3cccs3)CC2)sc2ccccc21 | -6% | 1.0%[57.5 µM] | -3% | 0.8% | -6% | 8% | 4% | -0.9%
22 | Cc1cc(C(=O)NCCCn2ccnc2)cs1 | -5% | -3.8% | 13% | 1.0% | 3% | 0% | 6% | 0.2%
23 | CCNc1ncc2nc(-c3ccccc3)c(=O)n(Cc3cccs3)c2n1 | ? | 0.3% | -3% | -1.1% | 3% | -3%[9.22 µM] | -1% | 9.8%
24 | CCOC(=O)N1CCC(NC(=O)C(Cc2ccccc2)NC(=O)c2ccco2)CC1 (stereo not drawn) | -10% | -0.5% | 3% | -0.1% | 1% | 2% | 0% | -0.6%
25 | Cc1ccc(S(=O)(=O)NCC(c2ccccc2)N2CCN(CCC#N)CC2)cc1 (stereo not drawn) | 8% | -0.5% | 5% | 0.3% | -4% | 3% | 4% | 0.7%
26 | CCC(=O)Nc1cccc(NC(=O)COc2ccc(OC)cc2)c1 | 1% | -0.7% | -4% | -0.7% | 0% | 0% | -3% | 2.3%
27 | C=CCNC(=O)N[C@@H](CCSC)C(=O)OC | -1% | -1.7%[57.5 µM] | 9% | -0.8% | 4% | 2% | -3% | -3.4%
28 | COc1ccccc1C1/C(=C(/O)c2ccccc2)C(=O)C(=O)N1CC(C)O (stereo not drawn) | -12% | 0.0% | 40%[activator] | 1.5% | 5% | -2% | 15% | -0.8%
29 | COc1nc(N(c2ccccc2)c2ccccc2)nc(-n2ccnc2)n1 | 6.3µM* | 0.0% | 13% | 2.0% | 2% | 0% | -6% | 2.2%
30 | COc1ccc(NC(=O)CCN2CCCCCC2)c(OC)c1 | 2% | . | 1% | 0.1% | -4% | 2% | -4% | -1.9%

5 of the compounds above, in transposed form:
12) COc1ccccc1N1CCN(Cc2nc3ccccc3c(=O)n2CC(C)=O)CC1
13) CN(C)S(=O)(=O)NCc1ccc2c(c1)OCO2
14) CCOC(=O)c1cn(CC)c2cc(N3CCCCC3)c(F)cc2c1=O
15) COc1ccc2cc(C#N)c(N3CCN(Cc4nnnn4CCC(C)C)CC3)nc2c1
16) COc1ccc(C(=O)NCCCn2ccnc2)cc1

entry no. | 12 | 13 | 14 | 15 | 16
CRE-bla Fsk | ? | ? | ? | 10% | -2%
HBB splice mod | -2.9% | 0.7% | 0.6%[57.5 µM] | . | -0.2%[57.5 µM]
15-hLO inh | 1% | 8% | -1% | -16% | 7%
BRCT inh red | 0.9% | 0.8% | -2.4% | 1.5% | -2.0%
Pol III holo inh | 0% | -4% | 2% | -10% | -2%
Epigenetic mod | 1% | -3% | 0% | 0% | 0%
UbGFP stabilizer | -10% | -6% | -5% | -1% | 0%
BRCT PPI green | -2.3% | -1.5% | -1.4% | 4.7% | 0.8%

New compounds follow:
entry | SMILES | CRE-bla Fsk | HBB splice mod | 15-hLO inh | BRCT inh red | Pol III holo inh | Epigenetic mod | UbGFP stabilizer | BRCT PPI green
31 | Cn1c(-c2c(N)n(C3CCCC3)c3nc4ccccc4nc23)nc2ccccc21 | ? | ? | -3% | -0.2% | 11% | 2% | -5% | 4.9%
32 | CCC(=O)c1ccc(OCC(O)CN(C)C2CCCCC2)cc1 (stereo not drawn) | 0% | -3.6% | 6% | 1.2% | -4% | 2% | 3% | -0.2%
33 | CCc1nc(-c2cc3ccc(C)cc3[nH]c2=O)no1 | 9% | . | 0% | -1.3% | -2% | 1% | 1% | 2.1%
34 | Cc1cccc2cc3ccc4ccccc4c3cc12 | -3%[7.6 µM] | 0.8%[9.22 µM] | -2%[11.4 µM] | 0.2%[15.4 µM] | 1%[11.4 µM] | 0%[9.22 µM] | -3%[9.17 µM] | 0.9%[15.4 µM]
35 | CCC(=O)Nc1nn(C)c2nc3c(C)cccc3cc12 | 10µM* | 6.9%[1.84 µM] | -14% | 1.3% | -7% | -2% | -15% | -3.9%
36 | CCNc1ncc2nc(-c3cccs3)c(=O)n(Cc3cccc(OC)c3)c2n1 | ? | 3.5% | -27% | -4.1% | 1% | -5%[9.22 µM] | 9% | -0.3%
37 | Cc1ccc(C(=O)NC2CCCCCC2)cc1N1CCCC1=O | 3% | -2.2% | 5% | 1.0% | -4% | -1% | 6% | -1.5%
38 | CCC(=O)Nc1ccc(S(=O)(=O)Nc2cccc(C)c2)cc1OC | ? | 2.0% | -2% | 0.1% | 1% | 2% | 4% | -1.4%
39 | COc1ccc(Nc2ncc3c(n2)CC(c2ccc(OC)cc2)CC3=O)cc1 (stereo not drawn) | ? | -0.4%[1.84 µM] | -18% | -0.2% | -2% | -2% | 2% | -2.3%
40 | Cc1ccsc1C1C=C(c2cccc(Br)c2)Nc2ncnn21 (stereo not drawn) | ? | -0.9% | 16µM* | -1.4% | 3% | 0% | 2% | 0.9%
41 | COc1cccc(C2NC(=O)NC(C)=C2C(=O)Nc2cccc(C)c2C)c1 (stereo not drawn) | 18% | 1.1% | 17% | -0.4% | -3% | -3% | 16% | -1.2%
42 | CC(C)=CCCC(C)CN1CCC(O)CC1 (stereo not drawn) | ? | 0.8% | 6% | -3.9% | 2% | -1% | -5% | 0.4%
43 | COc1ccc(S(=O)(=O)N2CCN(C(=O)NC3CCCCC3)CC2)cc1OC | 2% | -0.9% | 3% | -1.9% | -3% | 0% | -7% | -1.2%
44 | CCC(=O)Nc1nc2ccccc2n1CCN(CC)CC | 25% | -1.5% | -9% | -0.4% | -3% | 0% | -2% | 2.6%
45 | CC(=O)NCCNc1ncncc1-c1ccccc1C | -1% | -1.1% | 16µM* | -0.3% | -1% | 3%[9.22 µM] | 0% | -3.5%
46 | O=C1C2ON(c3ccc(Cl)cc3)C(c3ccco3)C2C(=O)N1c1ccccc1 (stereo not drawn) | ? | 1.2% | -3% | -0.9% | -1% | 9% | 7% | -0.7%
47 | O=C1c2[nH]nc(-c3ccccc3O)c2C(c2cccc(Cl)c2)N1Cc1ccco1 (stereo not drawn) | 9% | 3.0%[0.369 µM] | ? | 0.3% | -3% | 2% | -3% | 3.4%
48 | Cn1c(=O)c2c([nH]c(=O)n2C)n(C)c1=O | -5% | -2.1% | -5% | -1.8% | 0% | 2% | -4% | -2.4%

Assay outcomes deposited in PubChem BioAssay by National Center for Advancing Translational Sciences (NCATS).

Only part of the results is shown. The share of hits here may be higher or lower than overall.
